# Source: PubChem (several laboratories)
# Sa RN4220 lethal – growth inhibition of S. aureus RN4220, primary screen, OD600; actives 0.33% (n = 330,000); inhibition, % (test concentration not listed); 16 h; AID 1259311, 2017;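 active = z-score of -3 or lower and OD600 up to 0.18 on both plates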;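 note: plate controls were untreated cells for no effect and reference antibiotic for full effect; stock transfer was 100 nL into about 80 µL; one replicate is shown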
# BJeLR viability – MLPCN primary cell-based screen for lethality selective to Ras in HRASV12 cells | BJeLR (HRASV12) viability, CellTiter-Glo ATP luminescence, 48 h; reference of the scale not given here | inhibition, % (concentration not given with the values) | actives 0.17% (n = 300,000) | AID 1554, 2009;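 active = replicate mean above 50%; inconclusive = above 50% but judged a plate artefact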;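 note: 50 nL library stock added to about 25 µL; numbers are from one replicate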
# Bead autofluor – counter-screen for toxin protease inhibitors: compound fluorescence. compound autofluorescence counterscreen, microsphere flow cytometry; stronger effect = higher value. actives 3.1% (n = 360,000). fluorescence intensity (concentration not given with the values);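 active = at least 3 SD above the mean of all compounds, about 16000 in these data; inconclusive = too few beads counted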;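 note: 100 nL of 1 mM stock went into each well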
# Sa ugtP lethal – growth inhibition of ugtP-null S. aureus, primary screen, RN4220 ugtP deletion, OD600; 16 h; some inactives read as strong as hits; growth inhibition, % (test concentration not listed); actives 0.54% (n = 330,000); AID 1259309, 2017;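 active = z-score under -3 and OD600 up to 0.15 on both plates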;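 note: plate controls were untreated wells for no effect and antibiotic for full effect; wells of about 80 µL received 100 nL stock; the first replicate is given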
# PrP 5UTR inh – inhibition of PrP 5' UTR reporter expression | AID 488862, 2010 | actives 0.35% (n = 340,000) | cell-based PrP 5' UTR mRNA reporter, plate reader | inhibition, % (concentration not given with the values);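 active = every replicate at 50% or more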;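 note: 0 = median of the neutral control wells; tested in H4 reporter cells; numbers are from one replicate; inactives centre near -14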
# Mtb hypoxia rep – PubChem AID 1159583; M. tuberculosis hypoxia-regulated fluorescent reporter, fluorescence; fluorescence inhibition, % (concentration not given with the values); actives 0.1% (n = 300,000);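 active = 35 to 45% if threefold the growth effect, above 45% if 1.5-fold the growth effect; inactive = the rest, general growth blockers included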;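 note: wells of about 50 µL received 100 nL stock; 0% = vehicle wells and 100% = reference inhibitor wells; whole bacteria with a GFP reporter of the hypoxia response; strong numbers were not always called active; many hits fall short of the cut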
# Mtb hypoxia rep growth – further read-out of Mtb hypoxia rep, marked with its call; growth inhibition, %; measured here: M. tuberculosis growth (absorbance);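 0% = vehicle and 100% = reference antibiotic; read after six days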
# * = called active by the depositor; u = inconclusive; x = no result given.
SMILES,Sa RN4220 lethal,BJeLR viability,Bead autofluor,Sa ugtP lethal,PrP 5UTR inh,Mtb hypoxia rep,Mtb hypoxia rep growth
O=C1NN(c2ccc(F)cc2)C(=O)/C1=C\C=C\c1ccco1,-0.2,-9,1986,2,-40,-5,-7
COc1ccccc1NC(=O)Nc1ccnn1C1CCN(C(=O)c2ccccn2)CC1,4.6,0,5751,2,-20,5,1
CCCn1cnc2c(c1=O)c1nc3ccccc3nc1n2CCc1ccccc1,9.6,-3,12579,-14,-25,1,0
CCC(C)C(NC(=O)OCc1ccccc1)c1nnc(C(NC(=O)OCc2ccccc2)C(C)CC)o1 (centres undefined),2.9,x,x,4,x,21,5
O=C(Cn1c(C(F)(F)F)nc2ccccc21)NN=Cc1ccco1,15,x,x,1,x,3,9
CCOC(=O)c1c(C)c(C(=O)NCc2ccccn2)c(C)n1CC,3.0,-18,10395,-3,-27,7,8
CCN(CC(=O)N1CCN(Cc2ccccc2)CC1)S(=O)(=O)c1ccccc1,4.2,5,5459,10,-19,2,11
COc1ccc(-n2c(C)nn(C)c2=O)c(OC)c1,4.6,-16,18468*,-1,-8,6,3
NC(=O)NCCCC(=O)OCC(=O)c1ccc2ccccc2c1,1.4,1,4789,4,-1,7,8
COc1ccc(C2SCCN2C(=O)c2ccc([N+](=O)[O-])cc2)cc1 (centres undefined),-0.8,0,4136,2,-28,11,-2
COc1ccc(CNC(=O)CSc2nc3ccc(N)cc3s2)cc1,3.7,-16,2264,-2,-26,6,9
O=C(O)c1cccc(-c2ccc(C=c3sc4nc5ccccc5n4c3=O)o2)c1,11,x,x,35,x,11,4
Cc1c2c(nc3ccccc13)CC(C)(C)CC2=O,5.3,5,4333,0,-8,3,12
O=C1COc2ccc(C(=O)COC(=O)c3ccccn3)cc2N1,2.0,-8,x,4,-2,3,0
CC(=O)N1CCN(CC(=O)Nc2ccccc2Sc2ccccc2)CC1,7.8,2,2000,-1,3,4,3
CC(C)C(=O)N=C1SC2CS(=O)(=O)CC2N1Cc1ccc(Cl)cc1 (centres undefined),1.9,7,3817,2,-20,13,4
O=C(C=NO)NCCN1CCCCC1,1.9,x,x,2,x,5,11
O=C(COc1ccc(F)cc1)N1CCCCCCC1,2.5,4,3434,6,-11,x,x
C=CCn1c(SCC(=O)Nc2c(C)cccc2C)nnc1-c1cnccn1,-4.0,3,4791,-11,-22,-7,-2
O=C(CCCCn1ccc(=O)[nH]c1=O)Nc1ccc(O)c(C(=O)O)c1,0.3,x,3423,-3,-9,16,13
O=C(N/N=C/c1cccnc1)c1cc(C2CC2)nc2ccccc12,x,7,3726,x,-20,x,x
CCCNC(=O)COC(=O)c1ccc(S(=O)(=O)N2CCCCCC2)cc1,0.6,-7,4650,-2,-10,x,x
CC1CCC(C(C)C)C(OP(N)(=O)c2ccccc2)C1 (centres undefined),4.0,-3,9213,-9,-36,12,8
O=C(Nc1ccc(N2CCOCC2)cc1)c1c(F)cccc1Cl,6.5,-9,2893,6,-11,8,7
Cc1cc(C(=O)CSc2n[nH]c(-c3ccccc3F)n2)c(C)n1Cc1cccs1,5.9,-2,4250,-18,0,x,x
CC(C)(C)C(=O)N(Cc1ccccc1)c1ccccn1,0.6,1,4433,3,-25,3,1
Cc1ccc(CN2CCN(Cc3cnc(C)s3)CC2CCO)o1 (centres undefined),1.8,3,2642,7,-13,6,6
O=C(COc1ccc(/C=N/NC(=O)c2cccnc2)cc1)Nc1ccccc1,x,7,6044,x,-35,x,x
CCOC(=O)N1CCC(=NNc2ccc(S(=O)(=O)N3CCOCC3)cc2[N+](=O)[O-])CC1,-2.2,-2,1952,-6,-1,1,0
Cc1cccc(N2CCN(S(=O)(=O)c3c(C)[nH]c(=O)[nH]c3=O)CC2)c1C,-9.1,2,8449,10,-16,-7,0
Cc1nn(CC(=O)N2CCN(c3ccc(Cl)cc3)CC2)c(=O)c2cccn12,6.0,-9,4199,-1,-7,-3,1
Cn1ccnc1C(=O)c1ccc(NN)c([N+](=O)[O-])c1,-2.0,-6,1903,10,-7,-1,4
CCOc1ccccc1N(C)C(=O)Cn1ncc2c([nH]c3ccccc32)c1=O,0.0,3,5148,-1,14,5,-3
OCCCn1c(C2CCCN2c2nc(-c3ccc(F)cc3)cs2)nc2cc(Cl)c(N3CCCCC3)cc21 (centres undefined),-4.8,-10,3982,-5,6,15,3
COc1cccc(-n2c(Cc3cc(=O)[nH]c(=O)[nH]3)nnc2SCc2cccc(C(F)(F)F)c2)c1,-0.3,7,2169,5,-12,16,-2
O=C(CNC(=O)c1cccc(F)c1)N/N=C/c1ccc(O)c([N+](=O)[O-])c1,x,-16,2378,x,-34,x,x
COC(=O)c1ccc(NC(=O)COc2ccc(S(=O)(=O)NC(C)(C)C)cc2)cc1,1.1,-1,4087,3,-26,-6,-8
O[C@H]1COC2C1OC[C@@H]2O (some centres undefined),x,0,4213,x,-19,x,x
COc1cccc(CN(C)C(=O)c2[nH]c(C)c(C(C)=O)c2C)c1OC,4.0,1,8373,3,-14,4,7
O=c1oc2cc(OCc3ccc(C(F)(F)F)cc3)ccc2cc1-c1ccccn1,4.9,-11,4753,3,-13,x,x

# Taken from the listing (three entries):
SMILES,Sa RN4220 lethal,BJeLR viability,Bead autofluor,Sa ugtP lethal,PrP 5UTR inh,Mtb hypoxia rep,Mtb hypoxia rep growth
O=C(N/N=C/c1cccnc1)c1cc(C2CC2)nc2ccccc12,x,7,3726,x,-20,x,x
CCCNC(=O)COC(=O)c1ccc(S(=O)(=O)N2CCCCCC2)cc1,0.6,-7,4650,-2,-10,x,x
CC1CCC(C(C)C)C(OP(N)(=O)c2ccccc2)C1 (centres undefined),4.0,-3,9213,-9,-36,12,8

# (next part)
SMILES,Sa RN4220 lethal,BJeLR viability,Bead autofluor,Sa ugtP lethal,PrP 5UTR inh,Mtb hypoxia rep,Mtb hypoxia rep growth
CC(=O)c1ccc(-c2ccc([C@H]3[C@H]4C=CC[C@@H](C)[C@@H]4C(=O)N3Cc3ccccc3)c(F)c2)cc1,x,-1,3636,x,-21,x,x
Cc1cc(C)n(C(=O)CNC(=O)c2ccco2)n1,1.8,-4,11602,5,-10,9,5
CC(NC(=O)c1ccccc1Cl)C1CC2CCC1C2 (centres undefined),19,-7,3052,-4,-21,x,x
CCc1cc(C(=O)Nc2cc(Cl)ccc2N2CCN(C)CC2)sc1C,-2.5,5,4398,-10,-5,-4,1
NC(=O)C1CCCN(C(=O)CCc2nnc(C3(c4ccc(Cl)cc4)CCC3)o2)C1 (centres undefined),3.6,0,6621,7,-31,7,-2
CCN(CC)C(=O)C(C(=O)c1cccc([N+](=O)[O-])c1)n1cc(Cl)ccc1=O (centres undefined),3.9,16,5287,-4,-6,8,-2
CCC(C)NC(=O)C1CCCN(S(=O)(=O)c2ccc3c(c2)CC(C)N3C(C)=O)C1 (centres undefined),3.8,3,5236,12,-7,8,4
COc1ccccc1-n1nnnc1SCC(=O)NCC1CCCO1 (centres undefined),2.1,2,5500,3,-34,-3,8
COc1ccc(C(=O)NCC(=O)OCC(=O)NCCC2=CCCCC2)cc1,1.5,3,2084,0,2,0,2
Cc1cc(C(=O)OC(C)C(=O)N2CCc3ccccc32)ccc1[N+](=O)[O-] (centres undefined),0.0,0,u,9,-1,-11,-12
O=C(CC1C(=O)NCCN1C(=O)c1ccccc1)Nc1cc(Cl)ccc1Cl (centres undefined),0.6,12,4529,8,-6,4,-1
Cn1c(=O)c2c(nc(N/N=C/c3cccnc3)n2Cc2ccccc2)n(C)c1=O,x,8,5731,x,-27,x,x
Cc1cc(S(=O)(=O)Nc2noc3ccccc23)ccc1F,0.6,3,2836,-9,-20,-18,-14
CCCOc1cccc(C(=O)Nc2cccc(NC(=O)c3ccco3)c2)c1,9.6,-3,2756,-16,-8,x,x
CCOC(=O)N1CCN(C2CCCN(C(=O)c3cccc(Cl)c3)C2)CC1 (centres undefined),-0.3,11,5501,1,0,5,-2
Cc1cc(C=NNC(=O)CC#N)c(C)n1-c1ccc([N+](=O)[O-])cc1,8.2,x,x,8,x,6,13
Cc1ccc(OCC(=O)Nc2ccc(N3CCCC3)cc2)cc1C,7.2,1,5054,4,-15,10,8
CCCCN1C(=O)C(=O)N(CC(=O)Nc2cccc(C(C)=O)c2)C1=O,4.6,x,3167,10,-6,-1,4
O=C(c1ccncc1)N1N=C(C2CC2)CC1(O)C(F)(F)F (centres undefined),0.3,-7,2590,-1,-38,-2,-7
O=C(CSc1nc2ccccc2s1)Nc1nccs1,0.8,-2,9776,3,-27,8,11
Cn1c(N)c(C(=O)CSc2nc3ccccc3c(=O)n2Cc2ccccc2)c(=O)n(C)c1=O,3.8,2,3316,8,-22,10,-2
COc1ccc(CN2CCN(C(=O)Cc3ccccc3)CC2)c(OC)c1,2.3,-8,2504,-1,-15,3,7
Cc1cc2c(cc1C)C(c1cccc(F)c1)CC(=O)N2 (centres undefined),7.6,8,4107,-3,-4,3,-1
Nc1ncnc2c1ncn2[C@@H]1O[C@H](CNCc2cn(CC(=O)NC3CC3)c3ccccc23)[C@@H](O)[C@H]1O,-0.8,x,3495,3,-17,0,0
c1ccc(-c2cc3c(N4CCCCC4)ncnc3s2)cc1,10.0,-6,3478,-1,-6,4,7
COc1cc([N+](=O)[O-])ccc1-c1ccc(C(=O)Nc2ccc(NC(C)=O)cc2)o1,5.7,-4,10209,-2,-30,6,0
COC(=O)CN(c1nc(C)c(Br)c(OC)n1)S(=O)(=O)c1ccccc1,3.2,-7,3321,7,-10,-4,1
CCc1ccccc1NC(=O)NNC(=O)CCc1ccc(OC)cc1,4.1,7,6223,2,-11,14,8
COc1ccccc1/C=N/NS(=O)(=O)c1ccccc1,x,2,3813,x,-24,x,x
Cc1cccc(C)c1NC(=O)c1c[nH]c2ccccc12,2.8,-11,3730,-2,-54,0,5
O=C(COC(=O)/C=C/c1ccccc1)NC(=O)NCc1ccccc1,-3.4,x,3529,-4,-14,-12,-5
CC(CC(=O)N1CCN(c2cccc(Cl)c2)CC1)S(=O)(=O)c1ccc2c(c1)NC(=O)CO2 (centres undefined),x,-7,5613,x,7,x,x
Cc1ccnc(Nc2nc(-c3c(C)nc4sccn34)cs2)c1,8.7,5,8742,-3,-35,19,10
COc1cc(C(=O)NC(c2ccccc2)c2ccccc2)cc(OC)c1OC,5.3,0,3293,15,-16,7,6
c1ccc(CNCCc2c[nH]c3ccccc23)cc1,3.1,1,3317,-3,-20,11,2
CC[n+]1c(/C=C2/C=C(C)CC(C)C2)sc2ccccc21 (centres undefined),x,11,2220,x,-10,x,x
CC(=O)c1cccc(NC(=O)CC2S/C(=N/N=C/c3cccs3)NC2=O)c1 (centres undefined),x,1,2544,x,-28,x,x
Cc1cc2c(cc3c(=O)n(CC(=O)NCCCN4CC(C)CC(C)C4)ncn32)s1 (centres undefined),1.5,1,5307,4,-12,1,8
COc1ccc(OCC(O)CN2C(=O)NC(C)(C)C2=O)cc1 (centres undefined),2.8,3,4053,0,-18,0,-1
Cc1cc(C(=O)CN2C(=O)NC3(CCCCC3)C2=O)c(C)n1Cc1ccc2c(c1)OCO2,2.8,2,3656,-2,-19,11,5
COC(=O)C(Cc1c[nH]c2ccccc12)NC(C)=O (centres undefined),5.2,-2,2178,7,-11,x,x
COc1ccc(Cn2cc3c(-c4ccc(F)cc4)nnc-3c3cc(OC)c(OC)cc32)cc1,-6.5,x,6100,7,-23,6,8

# Some of the entries above in another layout.
# Fields – Sa RN4220 lethal	BJeLR viability	Bead autofluor	Sa ugtP lethal	PrP 5UTR inh	Mtb hypoxia rep	Mtb hypoxia rep growth
- Cn1c(N)c(C(=O)CSc2nc3ccccc3c(=O)n2Cc2ccccc2)c(=O)n(C)c1=O
 : 3.8	2	3316	8	-22	10	-2
- COc1ccccc1-n1nnnc1SCC(=O)NCC1CCCO1 (centres undefined)
 : 2.1	2	5500	3	-34	-3	8
- O=C(Cn1c(C(F)(F)F)nc2ccccc21)NN=Cc1ccco1
 : 15	x	x	1	x	3	9
- Cc1cc(C)n(C(=O)CNC(=O)c2ccco2)n1
 : 1.8	-4	11602	5	-10	9	5
